# Screening data from PubChem.
# rRNA inh HTS = reduced GFP signal of wild-type E. coli, primary screen, bacterial rRNA inhibitor project, GFP/RFP fluorescence, OD600, single point; E. coli WT GFP vs humanized-ribosome RFP mutants, 24 h; active compounds read low; DMSO median 0, no signal -100; GFP signal change (wild-type ribosome), % (concentration not given with the values); 1.6% of 350,000 active;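 active = significant combined selectivity score with lowered wild-type GFP, culture density cut under 30%, mutant RFP and density less affected; inactive = any of these conditions unmet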; note: one replicate is shown; some compounds called inactive have numbers as strong as hits
# rRNA inh HTS OD600 = further read-out of rRNA inh HTS, marked with its call; OD600 change, %; measured here: OD600 growth;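 optical density of the mix in the first replicate; 0 = DMSO median and -100 = no signal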
# rRNA inh HTS RFP = second read-out of rRNA inh HTS, no call of its own (marks repeat the call); RFP signal change, %; measured here: RFP humanized mutant strains;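 first replicate; 0 = DMSO median and -100 = no signal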
# An asterisk follows results filed as active; & = joins results of further samples.
molecule	rRNA inh HTS	rRNA inh HTS OD600	rRNA inh HTS RFP
C[C@H]1CN([C@@H](C)CO)C(=O)c2c(c3ccccc3n2C)-c2ccccc2CO[C@@H]1CN(C)Cc1cccc(O)c1	-6	-53	39
CC(C)NC(=O)Nc1ccc2c(c1)C(=O)N([C@H](C)CO)C[C@@H](C)[C@H](CN(C)C(=O)c1ccncc1)OCCCC[C@@H](C)O2	1	-3	-2.0
C[C@@H]1CN([C@@H](C)CO)C(=O)c2cc(-c3ccc(C#N)cc3)cnc2O[C@@H]1CN(C)Cc1ccncc1	-2	-8	-4.3
Cc1noc(C)c1S(=O)(=O)Nc1cccc2c1O[C@H](CN(C)CC1CC1)[C@H](C)CN([C@H](C)CO)C2=O	4	3	-0.8
Cc1noc(C)c1NC(=O)Nc1ccc2c(c1)C(=O)N([C@@H](C)CO)C[C@@H](C)[C@@H](CN(C)CC1CCCCC1)O2	3	9	-3.1
C[C@@H]1CN([C@@H](C)CO)C(=O)c2cc(NS(=O)(=O)c3ccc(F)cc3)ccc2O[C@@H](C)CCCCO[C@H]1CN(C)Cc1ccncc1	-4	1	2.1
COc1ccc(S(=O)(=O)Nc2ccc3c(c2)CC(=O)N([C@@H](C)CO)C[C@H](C)[C@@H](CN(C)CC2CCCCC2)O3)cc1	6	-42	26
C[C@@H]1CN([C@@H](C)CO)C(=O)c2cc(C#CCN(C)C)cnc2O[C@H]1CN(C)C(=O)Cc1ccccc1	0	11	-4.5

# Compounds from the list above containing sulfur, in the order listed:
molecule	rRNA inh HTS	rRNA inh HTS OD600	rRNA inh HTS RFP
Cc1noc(C)c1S(=O)(=O)Nc1cccc2c1O[C@H](CN(C)CC1CC1)[C@H](C)CN([C@H](C)CO)C2=O	4	3	-0.8
C[C@@H]1CN([C@@H](C)CO)C(=O)c2cc(NS(=O)(=O)c3ccc(F)cc3)ccc2O[C@@H](C)CCCCO[C@H]1CN(C)Cc1ccncc1	-4	1	2.1
COc1ccc(S(=O)(=O)Nc2ccc3c(c2)CC(=O)N([C@@H](C)CO)C[C@H](C)[C@@H](CN(C)CC2CCCCC2)O3)cc1	6	-42	26

# Going on with the list:
molecule	rRNA inh HTS	rRNA inh HTS OD600	rRNA inh HTS RFP
CCCCN1C(=O)C(CC(=O)NCCc2ccccn2)CC(C(=O)N(CC)CC)=C1C (stereo unspecified)	3	2	-3.0
Cc1ccc(-c2ccc([C@H]3[C@@H](CO)N4CCCCN(C)C[C@H]34)cc2)cc1	0	0	0.1
C[C@H](CO)N1C[C@H](C)[C@@H](CN(C)C(=O)Nc2ccc3c(c2)OCO3)Oc2ccc(NS(=O)(=O)c3cccs3)cc2CC1=O	1	0	1.2
COc1ccc(CNC(=O)C[C@@H]2CC[C@@H](NC(=O)c3cccc(F)c3)[C@H](CO)O2)cc1	1	-6	-2.3
C[C@@H]1CCCCO[C@@H](CN(C)C)[C@H](C)CN([C@@H](C)CO)C(=O)c2cc(NC(=O)Cc3ccccc3)ccc2O1	5	12	-0.1
Cc1ccc(S(=O)(=O)Nc2ccc3c(c2)C(=O)N([C@@H](C)CO)C[C@@H](C)[C@@H](CN(C)S(=O)(=O)c2c(C)noc2C)O3)cc1	-2	-1	2.7
O=C1CN(S(=O)(=O)c2cccc(F)c2)C[C@H]2[C@@H](c3ccc(-c4ccccc4)cc3)[C@@H](CO)N12	-4	-10	2.5
Cc1ccc(S(=O)(=O)N(C)C[C@H]2OCCCC[C@H](C)Oc3ccc(NC(=O)CCC(F)(F)F)cc3C(=O)N([C@H](C)CO)C[C@@H]2C)cc1	-1	1	-1.1
O=C(C[C@H]1CC[C@H]2[C@@H](COC[C@@H](O)CN2C(=O)c2ccccc2)O1)NCc1cccc(F)c1	2	8	-4.0
C[C@@H]1CN([C@H](C)CO)C(=O)c2cccc(NC(=O)NC3CCCCC3)c2O[C@@H]1CN(C)Cc1ccncc1	5	7	-2.3
C[C@H](CO)N1C[C@H](C)[C@H](CN(C)Cc2ccccc2F)Oc2ncc(C3=CCCC3)cc2C1=O	1	1	-0.2
O=C(c1ccccc1)N1CC(=O)N2[C@H](CO)[C@@H](c3ccc(-c4ccccc4)cc3)[C@H]2C1	5	-15	9.3
COc1cccc(NC(=O)C[C@@H]2CC[C@H]3[C@H](COc4ccc(NC(=O)C5CCCC5)cc4C(=O)N3C)O2)c1	2	-6	1.4
CCCC#Cc1ccc2c(c1)O[C@H](CN(C)Cc1ccncc1)[C@@H](C)CN([C@@H](C)CO)S2(=O)=O	-40	-61	27
CO[C@@H](CN(C)C(=O)c1cnccn1)[C@@H](C)CN([C@H](C)CO)S(=O)(=O)c1ccc(F)cc1	-1	0	0.1
COc1ccc(CC(=O)Nc2nc(OCC(F)(F)F)cnc2-c2ccc(Cl)cc2Cl)cc1	-4	-47	-6.8

# Ordered by number of heavy atoms (smallest number first): 4 of the compounds above.
molecule	rRNA inh HTS	rRNA inh HTS OD600	rRNA inh HTS RFP
O=C(c1ccccc1)N1CC(=O)N2[C@H](CO)[C@@H](c3ccc(-c4ccccc4)cc3)[C@H]2C1	5	-15	9.3
COc1ccc(CC(=O)Nc2nc(OCC(F)(F)F)cnc2-c2ccc(Cl)cc2Cl)cc1	-4	-47	-6.8
O=C(C[C@H]1CC[C@H]2[C@@H](COC[C@@H](O)CN2C(=O)c2ccccc2)O1)NCc1cccc(F)c1	2	8	-4.0
C[C@@H]1CN([C@H](C)CO)C(=O)c2cccc(NC(=O)NC3CCCCC3)c2O[C@@H]1CN(C)Cc1ccncc1	5	7	-2.3

# The listing continues.
molecule	rRNA inh HTS	rRNA inh HTS OD600	rRNA inh HTS RFP
N#Cc1ccc(-c2ccc3c(c2)[C@H]2[C@H](CCN2C(=O)C2CCCC2)[C@@H](CO)N3)cc1	-43	-71	5.3
C[C@@H]1CN([C@@H](C)CO)C(=O)c2cccc(NS(=O)(=O)c3ccccc3)c2O[C@@H]1CN(C)C(=O)NC1CCCCC1	1	0	0.2
C[C@@H]1CCCCO[C@@H](CN(C)Cc2ccncc2)[C@@H](C)CN([C@H](C)CO)C(=O)c2cc(NC(=O)c3ccccc3)ccc2O1	10&1	0&1	-1.3&-1.8
CC(C)C[C@H]1CN(CCCC[C@H]2CNC(=O)C(=O)N2CCc2ccccc2)C(=O)C(=O)N1Cc1ccccc1	-8	-15	1.1
C[C@H](CO)N1C[C@H](C)[C@@H](CN(C)Cc2ccccc2)Oc2ccc(NC(=O)NC3CCCCC3)cc2CC1=O	-2	-18	-1.3
CC(C)NC(=O)N(C)C[C@H]1Oc2ccc(NC(=O)Cc3cn(C)c4ccccc34)cc2C(=O)N([C@H](C)CO)C[C@H]1C	3	4	2.9
COCC#Cc1cnc2c(c1)C(=O)N([C@H](C)CO)C[C@@H](C)[C@@H](CN(C)Cc1ccc3c(c1)OCO3)O2	4	2	1.1
COCC(=O)N1[C@@H](C#N)[C@H](c2ccccc2-c2ccccc2)[C@@H]1CO	6	15	9.2
CC(C)(C)CNC(=O)c1cc2c(Br)ccc(Br)c2nc1N	0	-14	3.0
N#C[C@@H]1[C@@H](c2ccccc2C2=CCCCC2)[C@@H](CO)N1C(=O)c1ccccn1	-16	-41	-6.3
C[C@@H]1CN([C@H](C)CO)C(=O)c2cc(NC(=O)C3CCCCC3)ccc2O[C@H]1CN(C)Cc1ccncc1	1	-2	-2.2
N#C[C@H]1[C@@H](c2ccccc2C2=CCCC2)[C@@H](CO)N1C(=O)NC1CCCCC1	-19	-45	-5.3
C[C@@H]1CCCCO[C@@H](CN(C)C(=O)Nc2ccc3c(c2)OCO3)[C@H](C)CN([C@H](C)CO)C(=O)c2cc(NC(=O)Cc3ccccc3)ccc2O1	-3	-5	-2.2
CN1C(=O)c2cc(NC(=O)C3CC3)ccc2OC[C@H]2O[C@@H](CC(=O)Nc3cc(F)ccc3F)CC[C@@H]21	-2	1	-0.5
COC(=O)C[C@@H]1CC[C@H]2[C@@H](COC[C@@H](O)CN2S(=O)(=O)c2ccc(F)cc2)O1	4	4	-1.1
C[C@@H]1CCCCO[C@H](CN(C)C(=O)CCC(F)(F)F)[C@@H](C)CN([C@@H](C)CO)C(=O)c2cc(NC(=O)Nc3ccccc3)ccc2O1	-6	-20	-2.1
CO[C@H]1CC[C@H]2CCN(C)C(=O)C[C@@H](c3ccccc3)CN(C)C(=O)c3cc(C#N)ccc3OC[C@@H]1O2	-1	-4	-1.8
O=C(Cc1ccc(Cl)cc1)Nc1cccnc1Cl	14	15	-1.4
COc1ccc2c3c([nH]c2c1)[C@H](CO)NCC31CCN(C(=O)C2CCCC2)CC1	-2	1	3.8
Cc1noc(C)c1NC(=O)Nc1ccc2c(c1)CC(=O)N([C@H](C)CO)C[C@@H](C)[C@H](CN(C)C(=O)Nc1ccc(C(F)(F)F)cc1)O2	-1	-9	-0.9
CN(Cc1ccccc1)C(=O)Cn1nnc(-c2ccccc2)c1COc1ccccc1	-29	-57	-12
C[C@H]1CN([C@@H](C)CO)S(=O)(=O)c2ccc(C#CC3CCCC3)cc2O[C@H]1CN(C)S(C)(=O)=O	0	-37	24
CN1C(=O)c2cc(NS(=O)(=O)c3ccc(F)cc3)ccc2OC[C@@H]2O[C@H](CC(=O)NCC(F)(F)F)CC[C@@H]21	-2	-3	-1.4
CCS(=O)(=O)Nc1ccc2c(c1)C(=O)N(C)[C@@H]1CC[C@@H](CC(=O)NC3CCCCC3)O[C@@H]1CO2	6	12	-1.3
CC(C)C#Cc1ccc([C@@H]2[C@H](CO)N3C(=O)CN(C(=O)C4CCCCC4)C[C@@H]23)cc1	6	3	2.8
COc1ccccc1NC(=O)N1CCCCN2[C@H](C1)[C@H](c1ccc(-c3ccc(C)cc3)cc1)[C@@H]2CO	-1	-13	6.5
CCCNC(=O)C[C@@H]1C[C@@H]2c3cc(NS(=O)(=O)c4ccccc4)ccc3O[C@@H]2[C@H](CO)O1	-2	-4	-1.4
CC(C)NC(=O)Nc1ccc2c(c1)CC(=O)N([C@@H](C)CO)C[C@@H](C)[C@H](CN(C)C(=O)Nc1cccc3ccccc13)O2	2	3	1.9
COc1ccc2c3c(n(C)c2c1)[C@@H](CO)N(CC1CC1)CC31CN(C(=O)c2ccc(F)cc2)C1	-5	-4	3.6
CCCC(=O)Nc1ccc2c(c1)C(=O)N(C)C[C@H](OC)[C@@H](C)CN(Cc1nccs1)[C@@H](C)CO2	3	2	-0.2
Cc1ccc(S(=O)(=O)N2CC[C@@H]3[C@H](CO)N(C)c4ccc(-c5ccc(C#N)cc5)cc4[C@@H]32)cc1	-6	-3	-5.6
CC(C)CC#Cc1ccc2c(c1)O[C@@H](CN(C)C(=O)Cc1ccncc1)[C@H](C)CN([C@@H](C)CO)S2(=O)=O	-3	2	10
O=C(C[C@@H]1CC[C@@H]2[C@H](COC[C@@H](O)CN2C(=O)Nc2cccc(Cl)c2)O1)NCCCN1CCOCC1	-57	-79	-19
O=C(NCc1ccncc1)[C@@H]1CCCN1C(=O)[C@@H]1CCCN1C(=O)c1c(F)cccc1F	3	11	2.9
C[C@@H]1CN([C@@H](C)CO)C(=O)c2cc(-c3cncnc3)cnc2O[C@H]1CN(C)Cc1ccccc1	3	4	-1.2
CC(=O)c1c(O)c(C)c(O)c2c1OC1=CC(=O)/C(=C(/C)N)C(=O)C12C (stereo unspecified)	-8	-19	41
COc1cccc(CNC(=O)[C@@H]2CCCN2C(=O)[C@@H]2CCCN2C(=O)OC(C)(C)C)c1	0	16	-1.0
CCC(=O)N1[C@@H](CO)[C@H](c2ccccc2)[C@@H]1CNC(=O)CN1CCOCC1	4	9	-3.5
C[C@@H]1CCCCO[C@@H](CN(C)C(=O)CCC(F)(F)F)[C@H](C)CN([C@@H](C)CO)C(=O)c2cc(NS(=O)(=O)c3ccccc3)ccc2O1	-3	-3	2.1
Cc1c(O)cnc2nn(-c3ccccc3)c(=N)n12	5	12	1.1

# An excerpt from above in order of the rRNA inh HTS RFP value, falling:
SMILES	rRNA inh HTS RFP
COc1ccc(S(=O)(=O)Nc2ccc3c(c2)CC(=O)N([C@@H](C)CO)C[C@H](C)[C@@H](CN(C)CC2CCCCC2)O3)cc1	26
Cc1noc(C)c1NC(=O)Nc1ccc2c(c1)CC(=O)N([C@H](C)CO)C[C@@H](C)[C@H](CN(C)C(=O)Nc1ccc(C(F)(F)F)cc1)O2	-0.9
CCS(=O)(=O)Nc1ccc2c(c1)C(=O)N(C)[C@@H]1CC[C@@H](CC(=O)NC3CCCCC3)O[C@@H]1CO2	-1.3
O=C(Cc1ccc(Cl)cc1)Nc1cccnc1Cl	-1.4
C[C@@H]1CCCCO[C@H](CN(C)C(=O)CCC(F)(F)F)[C@@H](C)CN([C@@H](C)CO)C(=O)c2cc(NC(=O)Nc3ccccc3)ccc2O1	-2.1
Cc1ccc(S(=O)(=O)N2CC[C@@H]3[C@H](CO)N(C)c4ccc(-c5ccc(C#N)cc5)cc4[C@@H]32)cc1	-5.6

# More records follow:
molecule	rRNA inh HTS	rRNA inh HTS OD600	rRNA inh HTS RFP
CCCCNC(=O)C1c2ccccc2OCC(=O)N1Cc1ccccn1 (stereo unspecified)	-1	0	-2.6
CC(=O)OC[C@@H]1CN(Cc2ccccc2)C[C@H](n2cnc3c(NCc4ccc(F)cc4)ncnc32)O1	-2	6	0.1
O=C(C[C@H]1C=C[C@H](NC(=O)C2CC2)[C@H](CO)O1)NCC1CC1	4	3	-1.9
Cc1noc(C)c1NC(=O)N(C)C[C@@H]1Oc2c(NC(=O)Nc3ccc(F)cc3)cccc2C(=O)N([C@@H](C)CO)C[C@@H]1C	-1	3	-1.1
COCC#Cc1cnc2c(c1)C(=O)N([C@@H](C)CO)C[C@@H](C)[C@@H](CN(C)C(=O)Nc1ccc(OC)cc1)O2	4	6	-1.6
COc1ccccc1NC(=O)Nc1ccc2c(c1)C(=O)N(C)C[C@H](OC)[C@@H](C)CN[C@@H](C)CO2	-1	2	0.7
COc1cc(CN2CCC(C(=O)NC(C)(C)C)CC2)ccc1OCc1ccccc1	-1	13	-5.7
C[C@@H]1CN([C@@H](C)CO)C(=O)c2cccc(NC(=O)c3ccncc3)c2O[C@@H]1CN(C)Cc1ccc(C(F)(F)F)cc1	-2	0	-0.1

# An excerpt (hit frequency here may not be typical).
